High-throughput results: PubChem BioAssay, ICCB-Longwood Screening Facility, Harvard Medical School
AID504770: growth inhibitors of E. coli YBA685 in a screen for V. cholerae RctB (chromosome II replication) inhibitors; z-score (concentration not given with the values); E. coli YBA685 rctB-dependent plasmid, OD600 growth, 3 h; stronger effect = lower value; AID 504770; 130,000 tested, 0.27% active;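 active = z-score under -2 on both plates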;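 note: wells of about 30 µL received 100 nL stock; score is relative to mean and SD of the test wells; the first replicate is given; strong numbers were not always called active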
Ba CapD inh: blocks the Bacillus anthracis CapD enzyme. purified CapD enzyme, fluorescence intensity read-out; stronger effect = lower value; some hits fall short of the stated cut. z-score (concentration not given with the values). 140,000 tested, 0.23% active. AID 492967;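 active = z-score under -4 in either of two replicates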;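 note: stock transfer was 100 nL into about 40 µL; score is relative to mean and spread of the plate; one replicate is shown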
Numbers without * were called inactive; . = not tested or not shown.

SMILES	AID504770	Ba CapD inh
O=C(CC1CCCC1)OCc1cccs1	1.55	-0.555
CC(=O)c1cc2cnccc2nc1C	.	-0.18
O=C(CCC1CCCC1)OCc1nnc(-c2ccccc2Br)o1	-1.15	.
CN(C)C1CCCCC1NS(=O)(=O)c1ccccc1 (stereo not given)	0.1	0.27
Cc1ccc(C)c(-n2nnnc2SCC(=O)N2CCCCC2C(N)=O)c1 (stereo not given)	-0.25	.
Cc1cc(=O)nc2c3ccccc3n(C(C)C(=O)N3CCc4ccccc43)n12 (stereo not given)	1.15	-1.25
CCOc1ccc(-c2csc(NC(=O)CC)n2)cc1	-0.9	-0.48
O=C(NCCN1CCOCC1)c1ccc(-c2ccccc2)cc1	-1.5	0.155
CCS(=O)(=O)c1ccc(O)c(-n2c(=S)[nH]c3ccccc3c2=O)c1	0.1	.
N#Cc1ncc(C(F)(F)F)cc1S(=O)(=O)c1ccc(Cl)cc1	1.2	-0.245
COc1ccccc1Nc1nc2nonc2nc1Nc1ccc(Cl)cc1	.	-0.74
CC1=NN(c2ccc(Cl)c(C(=O)O)c2)C(=O)/C1=C\c1cnn(-c2ccc(C)c(C)c2)c1	.	-0.675
CC(C)Nc1cc(-c2ccccc2)nc2nncn12	-0.4	17.9
CCOC(=O)c1s/c(=N/N=C(C)C)n(C)c1C	-0.8	-0.19
COc1ccc2[nH]cc(CCNC(=O)OCCc3ccccc3F)c2c1	.	-0.475
Cc1ccc2c(n1)CC(C)(C)C/C2=N/O	-0.35	0.855
COc1ccc(C2C(C(=O)OCCOc3ccccc3)=C(C)NC3=C2C(=O)CCC3)c(OC)c1OC (stereo not given)	.	3.05
O/N=c1\cc(-c2ccc3c(c2)OCCO3)oc2ccccc12	0.55	69.9
CC(C)n1c2ccccc2c2nnc(SCc3ccc4nonc4c3)nc21	-0.3	-0.44
c1ccc(Nc2ncn[nH]2)cc1	0.05	0.4
CNC(=O)/C(=C\C=C\c1ccccc1)NC(=O)c1ccccc1	-0.2	-3.19
Cc1nn(-c2ccccc2)cc1/C=C1/CN(C)C/C(=C/c2cn(-c3ccccc3)nc2C)C1=O	0.65	.
CC(C)/C=C1\CCCCC1O (stereo not given)	0.5	0.485
C=CCN(CC=C)C(=O)c1csc(Nc2ccc(C)cc2)n1	-0.05	1.01
Cc1sc(-c2ccc(Cl)cc2)nc1CC(=O)NCCc1cccc(F)c1	.	28.8
COc1ccc(OCC(O)CNS(=O)(=O)c2ccc(C)cc2)cc1 (stereo not given)	-0.3	0.42
CCOC(=O)N1CCc2c(sc(NC(=O)/C=C/c3ccccc3)c2C#N)C1	0.75	-0.385
CCOc1ccc(NC(=O)N(CCc2ccncc2)C(C)C)cc1	0.15	-1.04
CC1(C)C(=O)NCCN1C(=O)CCC(=O)O	-0.35	.
COc1ccc(N2C(=O)CSC23C(=O)N(CN2CCCC(C)C2)c2ccccc23)cc1 (stereo not given)	-0.9	0.575
CCNc1c(NS(=O)(=O)c2ccc(F)cc2)c(=O)oc2ccccc12	-0.15	6.05
O=C(O)C=C1C2CC3CC(C2)CC1C3	-0.85	-0.6
CCCCC(O)(CCCC)C1=NN(c2ccc(F)cc2)C(=O)C(c2ccccc2)(c2ccccc2)O1	.	0.055
CC(=O)N1CCN(c2nc(-c3ccccc3)c3cc(Br)ccc3n2)CC1	.	0.48
COc1ccc(-c2nc3ccccc3c(C(=O)Nc3ccc(C(C)=O)cc3)c2C)cc1	.	8.62
O=S(=O)(Cc1ccc(Cl)cc1)c1nc2ccccc2[nH]1	0.4	0.115
COc1cc(NC(=O)c2cc3ccccc3cc2OCC(=O)NC(C)(C)C)c(OC)cc1Cl	1.8	43
O=C(NCc1ccco1)c1ccc2c(=O)n(CC3CCCO3)c(SCc3ccc(Cl)cc3)nc2c1 (stereo not given)	.	0.49
COc1ccc(CCNC2(C#N)CCCCC2)cc1OC	.	0.35
Cc1ccccc1-n1c2c(c(=O)[nH]c1=S)CN(Cc1ccco1)CN2	-0.4	0.28
O=C(O)CN1C(=O)/C(=C\c2ccc(-c3cccc4c3C(=O)c3ccccc3C4=O)o2)SC1=S	.	-0.18
COc1cccc(-n2c(=S)sc3c(=O)n(-c4ccc(F)cc4)c(=S)[nH]c32)c1	.	-1.1
O=S(=O)(CCSc1ccccn1)c1nc2ccccc2s1	-0.75	0.185
COc1ccccc1CNC(=O)c1cc(-c2ccccc2)nc2ccccc12	.	-0.07
Cc1c(C(=O)OCC(=O)Nc2ccc(C#N)cc2)oc2ccccc12	-0.65	.
O=S(=O)(c1cccc2nonc12)N1CCC1	.	0.175
O=CN/N=C/c1cn(-c2cccs2)nc1-c1ccccc1	-0.2	.
CC(=O)N/C(=C/c1ccc(C)c(C)c1)C(=O)O	-0.45	-0.77
N#Cc1ccc(Nc2ccc3c(C(F)(F)F)cc(C(F)(F)F)nc3n2)cc1	.	-0.29
COC(=O)CSc1ncnc2sc3c(c12)CCCC3	.	-0.12
COc1cccc(C(=O)N2N=C(C(F)(F)F)CC2(O)c2ccncc2)c1 (stereo not given)	.	0.65
Cc1c(C(=O)/C=C/N(C)C)nnn1-c1ccc(Cl)c(Cl)c1	0.25	0.09
CCOC(=O)COc1nc(-c2ccco2)cc(-c2ccco2)c1C#N	-0.85	107
Nc1ccccc1C1C=NNC1=O (stereo not given)	-1.5	-1.43
CC1=C(C(=O)OC2CCCC2)C(c2cccc(Cl)c2)CC(=O)N1 (stereo not given)	-0.8	-0.18
COc1ccc(-c2nc(CN3CCC(C(=O)NC4CCN(Cc5ccccc5)CC4)CC3)c(C)o2)cc1OC	0.3	0.825
COc1ccc(CCN2C(=O)C(C)SC2c2cccnc2)cc1 (stereo not given)	0.15	-1.05
CC(C)(CSc1ncccn1)NS(=O)(=O)c1ccccc1	-0.95	-0.21
COc1cc2ncnc(Nc3ccc(OC(F)(F)F)cc3)c2cc1OC	.	12.1
CCOc1ccc(OCC)c(S(=O)(=O)n2cccn2)c1	0.1	.

Of the compounds above, these have an NH in an aromatic ring:
SMILES	AID504770	Ba CapD inh
CCS(=O)(=O)c1ccc(O)c(-n2c(=S)[nH]c3ccccc3c2=O)c1	0.1	.
COc1ccc2[nH]cc(CCNC(=O)OCCc3ccccc3F)c2c1	.	-0.475
c1ccc(Nc2ncn[nH]2)cc1	0.05	0.4
O=S(=O)(Cc1ccc(Cl)cc1)c1nc2ccccc2[nH]1	0.4	0.115
Cc1ccccc1-n1c2c(c(=O)[nH]c1=S)CN(Cc1ccco1)CN2	-0.4	0.28
COc1cccc(-n2c(=S)sc3c(=O)n(-c4ccc(F)cc4)c(=S)[nH]c32)c1	.	-1.1

Full records as entered above. Order of screens: AID504770, Ba CapD inh
Listed for CC1=C(C(=O)OC2CCCC2)C(c2cccc(Cl)c2)CC(=O)N1 (stereo not given) : -0.8, -0.18
Listed for O=S(=O)(c1cccc2nonc12)N1CCC1 : ., 0.175
Listed for COc1cc2ncnc(Nc3ccc(OC(F)(F)F)cc3)c2cc1OC : ., 12.1
Listed for N#Cc1ccc(Nc2ccc3c(C(F)(F)F)cc(C(F)(F)F)nc3n2)cc1 : ., -0.29
Listed for Cc1c(C(=O)/C=C/N(C)C)nnn1-c1ccc(Cl)c(Cl)c1 : 0.25, 0.09

Next part:
SMILES	AID504770	Ba CapD inh
O=C(c1ccc(Cl)cc1Cl)N1CCSCC1	-0.5	-0.465
COc1cccc(C(=O)C(C#N)=C(SC)SC)c1	-0.7	-1.97
CCOC(=O)c1c(CSCCN(CC)CC)oc2ccc(OC)cc12	-0.4	0.395
O=C(Cc1cccc2ccccc12)Nc1ccc(N2CCOCC2)c(Cl)c1	-0.25	54.2
O=C1OCCC1Sc1nc(C2CCCCC2)n(-c2ccccc2)n1 (stereo not given)	0.15	.
CCOC(=O)c1sc(NC(=O)Cn2c(=O)c3ccccc3n(CC)c2=O)nc1C	.	0.28
Cc1cc(C)nc(SCc2cn3c(C)csc3n2)n1	1.6	-0.02
O=[N+]([O-])c1ccc2c(CSc3nc4ccc([N+](=O)[O-])cc4s3)c[nH]c2c1	.	-0.815
COC(=O)c1ccc(-n2c(C)cc(C(=O)CSc3ncnc4sc5c(c34)CCC5)c2C)cc1	0.4	-0.095
NS(=O)(=O)c1ccc(CCNC2=CC(=O)CC(c3ccco3)C2)cc1 (stereo not given)	-0.9	0.17
O=C(Cc1c(F)cccc1Cl)Nc1cc(C(=O)NCc2ccco2)ccc1N1CC2CC(C1)c1cccc(=O)n1C2 (stereo not given)	.	0.175
CC(=O)NC(=O)CCSc1ccccc1C(=O)NC(C)=O	-5.6	-0.405
O=C(CS(=O)(=O)Cc1ccccc1)Nc1ccc2c(c1)OCCO2	-0.15	0.26
Cc1nnc(COC(=O)c2cccc(S(=O)(=O)N3CCCCC3C)c2)o1 (stereo not given)	0.9	.
COc1ccc(Cl)cc1NC1=NC2CS(=O)(=O)CC2S1 (stereo not given)	0.2	-0.505

Looked up by structure from the entries so far (2):
SMILES	AID504770	Ba CapD inh
COc1ccccc1CNC(=O)c1cc(-c2ccccc2)nc2ccccc12	.	-0.07
COc1ccc(C2C(C(=O)OCCOc3ccccc3)=C(C)NC3=C2C(=O)CCC3)c(OC)c1OC (stereo not given)	.	3.05

Other entries follow:
SMILES	AID504770	Ba CapD inh
CCc1ccc(NC(=O)c2cc(S(=O)(=O)N3CCCC3)c[nH]2)cc1	-0.85	1.41
CC(NS(=O)(=O)c1ccc(C(C)(C)C)cc1)c1ccccc1 (stereo not given)	0	-0.12
N#CC(C(=O)NC(=O)c1ccccc1)=P(c1ccccc1)(c1ccccc1)c1ccccc1	.	0.21
CC(C)(C)P(=NC(=O)C(F)(F)F)(N1CCCCC1)N1CCCCC1	-0.75	.
O=C(NC(=S)NC12CC3CC(CC(C3)C1)C2)c1ccco1	-0.8	0.17
CSc1nnc(-c2ccc(NC(=S)N3CCCCC3)cc2)o1	.	-0.59
O=C(Nc1ccc2nc3n(c(=O)c2c1)CCCC3)c1cccc(F)c1	0.9	-0.31
N#CC(C#N)=C1CCCCCN1	-0.85	.
NC(N)=NS(=O)(=O)c1ccc(N=Cc2ccccc2O)cc1	1.6	-0.605
Cc1ccc(NC(=O)Cn2ccsc2=N)c(Br)c1	-0.25	.
Cc1nc(Nc2nc3ccccc3o2)nc(-c2ccc(Cl)cc2)c1C#N	-0.05	.
O=C(OCCCCc1ccc([N+](=O)[O-])cc1)N1CCN(c2ccccc2Cl)CC1	.	0.37
COC(=O)C1=CN(C2CC2)C=C(C(=O)OC)C1c1ccc(O)cc1	0.2	50.7
Cc1cc(C)nc(SCc2n[nH]c(=S)o2)n1	-1.15	-0.32
CC1=C(C(=O)OC(C)C(C)(C)C)C(c2cccc(Br)c2)NC(=O)N1 (stereo not given)	1.6	-1.44
Cc1ccnc(NS(=O)(=O)c2ccc(NC(=O)c3sc4ccccc4c3Cl)cc2)n1	.	9.4
O=C(O)CCc1nc2ccccc2c(=O)[nH]1	-0.5	-0.2
Cc1cccc(OCc2nnc(SCC(=O)c3ccc4c(c3)NC(=O)CO4)o2)c1	0.2	.
Cc1cccc(NC(=S)NCc2cccnc2)c1	.	0.035
CCOC(=O)n1nc(Cc2ccncc2)c2ccccc2c1=O	0.35	-0.57
O=C(COC(=O)C1CC(=O)N(Cc2ccco2)C1)c1ccc(OC(=O)c2ccco2)cc1 (stereo not given)	0.4	.
COC(=O)c1sccc1NC(=O)CC(=O)C(F)(F)F	-0.6	-0.825
O=Cc1cn(Cc2nc(-c3ccc(Br)cc3)no2)c2ccccc12	.	-0.17
O=C(Nc1ccc(O)c(-c2nc3ccccc3s2)c1)c1cccc(N2C(=O)CCC2=O)c1	.	0.46
O=C(NC1=NCCCCC1)c1ccccc1	-0.6	0.02
Cc1ccc(C)n1CCN1CCN(S(=O)(=O)c2ccccc2)CC1	1.5	-0.09
Clc1ncc(CN2CCN(c3ccccc3)CC2)s1	0.2	-0.335
COc1cccc(C2CC(C(F)(F)F)n3ncc(C(=O)N4CCCCC4)c3N2)c1 (stereo not given)	-0.6	-0.22
CN(CC(=O)N(C1CCCCC1)C1CCS(=O)(=O)C1)Cc1nc2ccccc2c(=O)[nH]1 (stereo not given)	0.2	.
Cc1ccc(NC(=O)CN(C)C(=O)COc2cccc3cccnc23)cc1	4.2	.
O=C(/C=C/c1cc(Br)ccc1F)OCC(=O)N1CCOCC1	1.15	.
COc1cc(C(=O)OC(C)CN2C(C)CCCC2C)cc(OC)c1OC (stereo not given)	-0.75	.
CCN(CC)c1ccc(C2C(C#N)=C(N)N(c3cccc(C)c3)C3=C2C(=O)CCC3)cc1 (stereo not given)	1.4	-0.505
CCOc1ccc(/C=C\C(C)=N\O)cc1	-0.05	-1.67
CC(C)Nc1nc(NC(C)C)nc(Nn2cnnc2)n1	2.3	0.01
CC(=O)C1=NN(c2ccccc2)C(c2cccc(OCc3ccc(Cl)cc3)c2)N1C(C)(C)C (stereo not given)	.	12
CC(C)Nc1c(-c2ccccc2)oc2ccc(C(=O)O)cc2c1=O	-0.25	-0.375
N#CC(C#N)=Cc1ccc(-c2ccccc2)o1	1.15	.
CCNc1nc(-c2ccccc2)cs1	-0.05	0.39
CC[n+]1ccsc1N	-0.55	0.08
O=C(Cc1ccccc1)N1CCSC1=S	1.4	.
COc1ccc2c(c1)N(C)/C(=C1/SC(=Nc3ccc(C)cc3)N(C)C1=O)S2	-0.3	.
O=C1NC2C3CC4CC(C3)CC2(C4)O1 (stereo not given)	1	0.22
Cc1oc2ncn(CC(C)C)c(=O)c2c1C(=O)NCC1CCN(Cc2ccc(F)cc2)CC1	0	-0.075
Cc1ccc(C(=O)C#Cc2ccccc2)cc1	0.95	-0.12
CCOC(=O)CCCCC(=O)c1[nH]c(=O)[nH]c1CSc1nc(N)c(C#N)cc1C#N	.	-0.715
CCn1c(=O)n(CC(=O)NCc2ccco2)c(=O)c2ccccc21	.	6.25
Cc1c(OCC(=O)NC2CCCC2)ccc2c1oc(=O)c1ccccc12	-0.4	3.74
CC(O)CC(=O)N1CCc2cc(S(=O)(=O)N(C)C)ccc21 (stereo not given)	.	-0.23
CN(C)CCCCCCOC(=O)N1CCN(c2ccccc2Cl)CC1	.	0.48
Cc1cc(=O)[nH]c(SC(C)C(=O)NC2CCCCC2)n1 (stereo not given)	-0.3	.
